# Assay outcomes: PubChem BioAssay, National Center for Advancing Translational Sciences (NCATS)
# VDR inhibitor – inhibitors of human vitamin D receptor; P11473; VDR-SRC2-3 peptide fluorescence polarization, 2 h; Potency, µM, inactives show max response, negative = inhibition, hits mostly inhibitors; 400,000 compounds, 0.93% hits; AID 504847; active means well fitted inhibition curve with a large enough effect; inconclusive means small, poorly fitted or top-dose-only effect, or another doubt; inactive means no such curve, though single readings can be large or run the other way; further: series mostly up to about 120 µM
# Target sequence (P11473 whole entry, looked up): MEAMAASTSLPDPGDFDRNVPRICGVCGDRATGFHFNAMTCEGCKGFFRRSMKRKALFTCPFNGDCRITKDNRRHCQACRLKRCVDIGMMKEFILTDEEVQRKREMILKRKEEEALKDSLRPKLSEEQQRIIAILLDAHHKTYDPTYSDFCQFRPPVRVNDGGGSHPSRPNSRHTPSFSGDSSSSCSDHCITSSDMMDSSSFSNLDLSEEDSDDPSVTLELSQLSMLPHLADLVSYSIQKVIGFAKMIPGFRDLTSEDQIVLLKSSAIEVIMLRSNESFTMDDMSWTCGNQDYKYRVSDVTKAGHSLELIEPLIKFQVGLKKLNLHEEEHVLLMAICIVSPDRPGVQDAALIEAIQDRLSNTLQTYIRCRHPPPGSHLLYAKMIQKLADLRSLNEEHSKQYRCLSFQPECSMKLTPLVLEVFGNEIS
#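 Compounds are added to VDR with labelled SRC2-3 coactivator peptide and held 2 h at room temperature. Inhibition of the VDR–peptide interaction is then read as a change in fluorescence polarization.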
# * marks the source's active call; other numbers are inactive results; ? = inconclusive; & = joins results of further samples. On the % scale 0 is the no-effect control and ±100 the full control effect; potency means the concentration at half of the fitted maximal effect. These rows are one share of the data. The share of hits here may be higher or lower than overall.
O=C(O)c1ccccc1NC(c1ccccc1)c1ccc(Cl)cc1 (centres undefined)
  VDR inhibitor: -25.8%

Cc1cc(-c2nnc(SCCC(=O)Nc3ccccc3)o2)no1
  VDR inhibitor: -22.0%

COc1ccc(OC)c(/C=N/NC(=O)C(=O)N2CCCCCC2)c1
  VDR inhibitor: 14.1%

NS(=O)(=O)c1cnccc1Nc1cccc(F)c1
  VDR inhibitor: 2.5%

CCC1CN(C(=O)N2CCC(C(=O)NCc3ccco3)CC2)c2ccccc2O1 (centres undefined)
  VDR inhibitor: -10.9%&6.9%

COc1cc(OC)c2c3c(c(C4CCCCC4)nc2c1)CCC3
  VDR inhibitor: 0.7%

COc1ccc(C2C(=O)N(C3CCC(C)CC3)CC(=O)N2Cc2ccc(C)cc2)cc1OC (centres undefined)
  VDR inhibitor: 1.4%

CS(=O)(=O)N(CC(=O)N1CCOCC1)c1cccc([N+](=O)[O-])c1
  VDR inhibitor: 4.6%

COc1ccc(N2CCN(S(=O)(=O)CCNC(=O)COc3cccc(OC)c3)CC2)cc1
  VDR inhibitor: 7.8%&7.6%

COc1cc(C(=O)NCCSc2ccccc2)cc(OC)c1OC
  VDR inhibitor: -11.4%

Cc1cccc(-c2n[nH]c(=S)n2/N=C/c2ccc(C)o2)c1
  VDR inhibitor: -17.5%

CCOC(=O)c1cc(-c2ccccc2)n(Cc2cc(CC)no2)n1
  VDR inhibitor: -17.2%

CCCn1cc(S(=O)(=O)c2ccc(C)cc2)c(=O)c2cc(F)c(N3CCCC3)cc21
  VDR inhibitor: 14.5%

CN(C)c1ccc(C(CNS(=O)(=O)c2ccccc2)N2CCc3ccccc32)cc1 (centres undefined)
  VDR inhibitor: 5.6%

N#CC1=C(N)OC2=C(C(=O)CCC2)C12CCN(C(=O)OCc1ccccc1)CC2
  VDR inhibitor: 3.0%

CC(=O)N1CCN(C2=Nc3cccc4cccc2c34)CC1
  VDR inhibitor: -2.0%

Cc1cc(C)c(C)c(S(=O)(=O)Nc2cccnc2)c1C
  VDR inhibitor: 0.6%

C=CCN1CCN(C(=O)c2ccc(-c3ccccc3)cc2)CC1
  VDR inhibitor: 6.9%

c1csc(-c2nn3c(C4CCCCC4)nnc3s2)c1
  VDR inhibitor: -16.8%

CCCc1cc(C(N)=O)c(NC(=O)C2CCCO2)s1 (centres undefined)
  VDR inhibitor: -27.8%

COc1cccc(CNC(=O)CCCn2nc(C)c3sc4ccccc4c3c2=O)c1
  VDR inhibitor: 21.0%

CC(C)Cn1c(=O)[nH]c2ccccc21
  VDR inhibitor: 18.0%

O=C(O)CCCCCN1C(=O)C(O)=C(C(=O)/C=C/c2ccccc2)C1c1cccc([N+](=O)[O-])c1 (centres undefined)
  VDR inhibitor: -13.3%

CS(=O)(=O)c1ccc(Cl)c(NC(=O)c2ccc3ccccc3c2)c1
  VDR inhibitor: -10.5%

O=C(O)c1cccc(N=C2NC(=O)C(CO)(CO)S2)c1
  VDR inhibitor: 0.6%

CC1(C(=O)NC2CCCC2)CCC(=O)N1Cc1ccccc1Cl (centres undefined)
  VDR inhibitor: -10.0%

CC(C)Cn1cc(C(=O)N2CCN(c3cccc(Cl)c3)CC2)c2c3ccccc3n(C)c2c1=O
  VDR inhibitor: -5.5%

CCN(CC)C(=O)CSc1n[nH]c(=O)n1CCc1ccccc1
  VDR inhibitor: -7.6%

CCCCOc1ccc(C(=O)NCC(=O)NC(C)CCc2ccccc2)cc1 (centres undefined)
  VDR inhibitor: 3.3%

CC(C)CNC(=O)COCc1cc(-c2ccc3c(c2)OCO3)on1
  VDR inhibitor: -23.0%

COc1ccc(OC)c(S(=O)(=O)N2c3cc(F)ccc3CCC2C)c1 (centres undefined)
  VDR inhibitor: -1.4%

Cc1cc(N2CCCCC2)nc2ccc(NC(=O)CCC(=O)N3CCN(c4ccccc4)CC3)cc12
  VDR inhibitor: 9.0%

Cc1ccc(C(C)C)c(Oc2nnnn2-c2ccccc2)c1
  VDR inhibitor: -10.9%

O=C(O)CSC(=S)N1CCCC1
  VDR inhibitor: 8.3%

COc1ccc(C2Nc3ccccc3C(=O)N2O)cc1CN1CCOCC1 (centres undefined)
  VDR inhibitor: -16.9%

O=C(COC(=O)Cc1cccs1)Nc1cccc(S(=O)(=O)N2CCOCC2)c1
  VDR inhibitor: 15.1%

CCc1ccccc1NC(=O)Cn1c(-c2nonc2N)nc2ccccc21
  VDR inhibitor: 10.1%

COc1ccc(-c2csc3nc(C)nc(N4CCN(C(C)=O)CC4)c23)cc1OC
  VDR inhibitor: -3.5%

CC(C)[C@@H](CSc1ccccc1)N1CCN(Cc2ccccc2)CCC1=O
  VDR inhibitor: 5.6%

COCCCNC(=O)c1sc2nc3n(c(=O)c2c1C)CCC3
  VDR inhibitor: 2.9%

O=C(NC1CCCCC1)c1ccc(S(=O)(=O)N2CCOCC2)cc1
  VDR inhibitor: 1.8%

CCOc1ccc(CCNC(=O)CN2C(=O)COc3ccc(S(=O)(=O)N(CC)CC)cc32)cc1
  VDR inhibitor: -8.7%

CC(C)CCNC(=O)CCNS(=O)(=O)c1ccc(Cl)cc1
  VDR inhibitor: -9.1%

O=C(NCc1ccccn1)c1c(O)c2c([nH]c1=O)CCCC2
  VDR inhibitor: -0.9%

Cc1cccc(NC(=O)c2ccc3ccccc3n2)c1C
  VDR inhibitor: -5.8%

# 20 consecutive entries from above, quoted:
O=C(O)CCCCCN1C(=O)C(O)=C(C(=O)/C=C/c2ccccc2)C1c1cccc([N+](=O)[O-])c1 (centres undefined)
  VDR inhibitor: -13.3%

CS(=O)(=O)c1ccc(Cl)c(NC(=O)c2ccc3ccccc3c2)c1
  VDR inhibitor: -10.5%

O=C(O)c1cccc(N=C2NC(=O)C(CO)(CO)S2)c1
  VDR inhibitor: 0.6%

CC1(C(=O)NC2CCCC2)CCC(=O)N1Cc1ccccc1Cl (centres undefined)
  VDR inhibitor: -10.0%

CC(C)Cn1cc(C(=O)N2CCN(c3cccc(Cl)c3)CC2)c2c3ccccc3n(C)c2c1=O
  VDR inhibitor: -5.5%

CCN(CC)C(=O)CSc1n[nH]c(=O)n1CCc1ccccc1
  VDR inhibitor: -7.6%

CCCCOc1ccc(C(=O)NCC(=O)NC(C)CCc2ccccc2)cc1 (centres undefined)
  VDR inhibitor: 3.3%

CC(C)CNC(=O)COCc1cc(-c2ccc3c(c2)OCO3)on1
  VDR inhibitor: -23.0%

COc1ccc(OC)c(S(=O)(=O)N2c3cc(F)ccc3CCC2C)c1 (centres undefined)
  VDR inhibitor: -1.4%

Cc1cc(N2CCCCC2)nc2ccc(NC(=O)CCC(=O)N3CCN(c4ccccc4)CC3)cc12
  VDR inhibitor: 9.0%

Cc1ccc(C(C)C)c(Oc2nnnn2-c2ccccc2)c1
  VDR inhibitor: -10.9%

O=C(O)CSC(=S)N1CCCC1
  VDR inhibitor: 8.3%

COc1ccc(C2Nc3ccccc3C(=O)N2O)cc1CN1CCOCC1 (centres undefined)
  VDR inhibitor: -16.9%

O=C(COC(=O)Cc1cccs1)Nc1cccc(S(=O)(=O)N2CCOCC2)c1
  VDR inhibitor: 15.1%

CCc1ccccc1NC(=O)Cn1c(-c2nonc2N)nc2ccccc21
  VDR inhibitor: 10.1%

COc1ccc(-c2csc3nc(C)nc(N4CCN(C(C)=O)CC4)c23)cc1OC
  VDR inhibitor: -3.5%

CC(C)[C@@H](CSc1ccccc1)N1CCN(Cc2ccccc2)CCC1=O
  VDR inhibitor: 5.6%

COCCCNC(=O)c1sc2nc3n(c(=O)c2c1C)CCC3
  VDR inhibitor: 2.9%

O=C(NC1CCCCC1)c1ccc(S(=O)(=O)N2CCOCC2)cc1
  VDR inhibitor: 1.8%

CCOc1ccc(CCNC(=O)CN2C(=O)COc3ccc(S(=O)(=O)N(CC)CC)cc32)cc1
  VDR inhibitor: -8.7%

# (further entries)
CC(=O)C1=C(C)NC(SCc2cccc3ccccc23)=C(C#N)C1c1ccco1 (centres undefined)
  VDR inhibitor: -20.1%

Cc1c(Cl)cccc1NC(=O)CC(C(=O)O)C1CCCO1 (centres undefined)
  VDR inhibitor: -3.2%

COC(=O)c1sc(S(=O)(=O)N2CC(C)OC(C)C2)c(C(=O)OC)c1C (centres undefined)
  VDR inhibitor: -6.4%

CCOC(=O)c1c(NC(=O)CSc2nnc(-c3ccc(C)cc3)o2)sc(C(C)=O)c1C
  VDR inhibitor: -14.3%

O=C(Nc1nnc(S(=O)(=O)N2CCCCCC2)s1)c1ccccc1F
  VDR inhibitor: -25.2%&6.5%

O=C(Nc1ccc(NC(=O)C2CC2)nc1)c1ccco1
  VDR inhibitor: -11.3%

Cc1cc(C)n(C(=O)CNC(=O)c2cccs2)n1
  VDR inhibitor: 22.5%

O=C(COc1cc(Cl)c(Cl)cc1Cl)NC(=O)NC1CCCC1
  VDR inhibitor: -4.4%

Cc1ccc(SCC(=O)OCC(=O)NCCC2=CCCCC2)cc1
  VDR inhibitor: 3.8%

O=Nc1c(O)[nH]c2ccc(F)cc12
  VDR inhibitor: -28.9%

COc1ccc(/C=N/N(C)c2cc(=O)n(C)c(=O)[nH]2)cc1OC
  VDR inhibitor: -1.3%

Cc1nc2sccn2c(=O)c1Cl
  VDR inhibitor: 0.7%

COc1ccc(NS(=O)(=O)c2ccc(O)c(NS(=O)(=O)c3ccc(NC(C)=O)cc3)c2)cc1
  VDR inhibitor: -1.1%

COc1ccc(NC(=O)COc2cccc(-n3cnnn3)c2)cc1Cl
  VDR inhibitor: -3.0%

CC(C)CN(CCC(=O)O)CC(C)C
  VDR inhibitor: 1.0%

COc1cc(/C=N/NC(=O)c2ccncc2)ccc1OC(=O)c1cccc(Br)c1
  VDR inhibitor: -3.5%

COc1ccc(NC(=O)/C(Cl)=C(/Cl)S(=O)Cc2ccccc2Cl)cn1 (centres undefined)
  VDR inhibitor: ?

CCOC(=O)C1=C(C)NC2=C(C(=O)CCC2)C1c1cccs1 (centres undefined)
  VDR inhibitor: 7.6%

COc1ccc(N(CC(=O)NC(C)C)S(=O)(=O)c2ccc(NC(C)=O)cc2)cc1
  VDR inhibitor: 0.1%

CCC(C)SCC(=O)Nc1ccc(S(=O)(=O)N2CCOCC2)cc1OC (centres undefined)
  VDR inhibitor: 1.4%

Clc1cccc(OCCN2CCN(CCOc3cccc(Cl)c3)CC2)c1
  VDR inhibitor: 16.3%

Cc1ccc(NC(=O)c2cc(S(=O)(=O)NCCc3ccccc3)ccc2F)cc1Cl
  VDR inhibitor: 6.9%

COc1ccc(C)cc1S(=O)(=O)Nc1cccc(SC)c1
  VDR inhibitor: -2.6%

Cc1noc(C)c1COC(=O)CCC(=O)c1ccc(F)cc1
  VDR inhibitor: -1.5%

C/C(=N\NC(=O)C(=O)Nc1cccc(Cl)c1)c1ccncc1
  VDR inhibitor: -14.1%

O=C(COCc1cc(-c2ccc3c(c2)OCO3)on1)NCc1ccc(F)cc1
  VDR inhibitor: 15.2%

O=c1c(S(=O)(=O)c2ccc(Cl)cc2)cn(Cc2ccccc2)c2ccc(F)cc12
  VDR inhibitor: -5.8%

CCNC(=O)CCSc1nc(C)cc(C)n1
  VDR inhibitor: -19.6%

COc1ccc(C(=O)Oc2c(Sc3ccc(C)cc3)c(C)nn2C(C)(C)C)c(OC)c1
  VDR inhibitor: -27.1%

CC(Sc1nc(-c2ccc(F)cc2)cs1)C(=O)Nc1ccc(Cl)cn1 (centres undefined)
  VDR inhibitor: -1.4%

CCC(C)c1ccc(NC(=S)N2CCN(S(C)(=O)=O)CC2)cc1 (centres undefined)
  VDR inhibitor: 13.9%

Oc1c(C(c2ccccc2F)N2CCCC2)sc2nc(-c3ccco3)nn12 (centres undefined)
  VDR inhibitor: -2.8%

CCc1ccc(OCC2Cn3c(nc4c3c(=O)[nH]c(=O)n4C)O2)cc1 (centres undefined)
  VDR inhibitor: -26.2%

O=C(/C=C/c1cccs1)NCc1ccc2c(c1)OCO2
  VDR inhibitor: -5.6%

COc1ccc(CNC(=O)C[C@H]2C(=O)N(C3CCCCC3)C[C@@H]2Cc2ccccc2)cc1
  VDR inhibitor: ?

CCN1CCN(c2ccc(NC(=O)c3ccc(F)cc3)cc2Cl)CC1
  VDR inhibitor: -9.5%

COc1ccc(NC(=O)Cn2c(=O)ccc3cc(S(=O)(=O)N4CCCC4)ccc32)cc1Cl
  VDR inhibitor: 16.5%

CCOC(=O)c1c(CNc2ccncc2)n(C)c2cc(Br)c(O)cc12
  VDR inhibitor: -0.3%

Cc1ccc(NC(=O)c2cc(C)on2)cc1
  VDR inhibitor: -7.5%

O=C(NN1CCOCC1)c1cnn2c(C(F)F)cc(-c3ccccc3)nc12
  VDR inhibitor: -8.2%

CCC1(CC)Nc2ccccc2C(=O)N1c1ccc(NC(C)=O)cc1
  VDR inhibitor: 0.9%

CSc1ccc(-c2nnn(Cc3ccc(C)cc3)n2)cc1
  VDR inhibitor: -12.4%

CCSc1nnc(NC(=O)CSc2sc3c(O)cc(=O)[nH]c3c2C#N)s1
  VDR inhibitor: 15.9%
